# Screening data deposited in PubChem BioAssay by National Center for Advancing Translational Sciences (NCATS).
# RECQ1 inh = inhibitors of human RECQ1 DNA helicase. RECQ1 DNA unwinding, red fluorescence kinetic read. AID 2549. 0.54% of 240,000 active. P46063. Potency, µM (titrated, usually from 57.3 µM), for the others: top-dose activity, negative = inhibition, hits mostly inhibitors;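 further: plate controls were vehicle for no effect and no enzyme for full effect; nearly all actives have a fitted effect of over 30% in size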
#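 RECQ1T1 50 nM; forked duplex (20 bp + 30-nt ss tails) 200 nM, ATP 2 mM final; pH 8.0, 2 mM MgCl2, 2.5 ug/ml poly(dI-dC); 15 min compound preincubation; discontinuous kinetic read over 2 h at RT.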
# RGS12 GoLoco inh = RGS12 GoLoco-Gai1 interaction inhibition; P63096; Gai1:RGS12 GoLoco peptide FP, rhodamine, 10 min; Potency, µM (doses to about 61.6 µM), inactives show at the highest dose activity, negative = inhibition, most hits filed as inhibitors; AID 880; 0.44% of 230,000 active; active means well fitted inhibition curve with a large enough effect, not every such curve was filed as active; inactive means no such curve, though single readings can be large or run the other way; further: nearly all actives have a fitted effect of over 30% in size; many of its hits are not listed in these tables
# Target sequence (P63096 whole entry, looked up): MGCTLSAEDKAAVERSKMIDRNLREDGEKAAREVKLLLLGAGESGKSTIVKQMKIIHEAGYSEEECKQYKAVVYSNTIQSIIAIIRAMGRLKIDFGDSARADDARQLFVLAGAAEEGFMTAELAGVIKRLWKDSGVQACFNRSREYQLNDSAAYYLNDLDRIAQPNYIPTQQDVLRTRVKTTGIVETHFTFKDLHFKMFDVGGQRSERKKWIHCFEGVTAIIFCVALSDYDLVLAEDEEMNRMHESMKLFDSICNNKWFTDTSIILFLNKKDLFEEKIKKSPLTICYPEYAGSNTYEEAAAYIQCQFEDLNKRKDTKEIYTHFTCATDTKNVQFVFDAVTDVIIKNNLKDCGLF
# JMJD2E inh = inhibitors of human JMJD2E histone demethylase; JMJD2E catalytic domain, FDH-coupled NADH fluorescence (FDH is formaldehyde dehydrogenase); Potency, µM (series often up to 57.1 µM), for the others: at the highest dose activity change, negative = inhibition, actives largely listed as inhibitors; 1.6% of 230,000 active; AID 2147; active means well fitted inhibition curve with a large enough effect, not every such curve was filed as active; inconclusive means small, poorly fitted or top-dose-only effect, or another doubt; inactive means no such curve, though single readings can be large or run the other way;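 further: 0% = wells with enzyme and -100% = buffer wells without enzyme; nearly all actives have a fitted effect of over 50% in size; many of its hits are not listed in these tables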
# L3MBTL1 block = blocks human L3MBTL1; AID 485360; AlphaScreen L3MBTL1–H3K9me1 peptide binding; Q9Y468; Potency, µM (titrated, usually from 57.1 µM), inactives show top-dose activity, negative = inhibition, actives largely listed as inhibitors; 0.66% of 230,000 active; further: nearly all actives have a fitted effect of over 60% in size
#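 First, the protein-peptide complex forms for 30 min at room temperature (L3MBTL1 50 nM, biotinylated H3K9me1 peptide 75 nM). Next, compounds are pin-transferred and incubated 30 min. Finally, AlphaScreen beads are added and read after 30 min.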
# An asterisk follows results filed as active; i = inactive; ? = inconclusive; · = no result given; & = joins results of further samples; [ ] = remark or other dose. Unless noted, the call rests on the fitted dose curve; in most records, active means well fitted curve in the direction sought with a large enough effect; inconclusive means small, poorly fitted or top-dose-only effect, or another doubt; inactive means no such curve, though single readings can be large; an effect the other way counts as inactive or inconclusive. Unless noted, on the % scale 0 is the no-effect control and ±100 the full control effect; potency means the concentration at half of the fitted maximal effect.
no.	SMILES	RECQ1 inh	RGS12 GoLoco inh	JMJD2E inh	L3MBTL1 block
1	CN(C/C=C/C#CC(C)(C)C)Cc1cccc2ccccc12	-6%&-6%	-6%	·	·
2	C[C@H]1COc2c(C3(N)CC3)c(F)cc3c(=O)c(C(=O)O)cn1c23	-3%	19%	?	·
3	COC(=O)[C@H]1[C@@H]2C[C@@H]3c4[nH]c5ccccc5c4CCN3C[C@H]2CC[C@H]1O	-3%	3%	-10%	·
4	CCCCC[C@H](O)/C=C\[C@H]1[C@H](C/C=C\CCCC(=O)O)[C@@H](O)C[C@H]1O (tested in a mixture with another compound)	-6%[25.9 µM]	0%[21.6 µM]	-2%[25.5 µM]	·
5	COc1cc2c(cc1OC)-c1cc3ccc(OC)c(OC)c3c[n+]1CC2	29%	-4%	?	-13%
6	O=C(O[C@@H](C(=O)O)[C@@H](OC(=O)c1ccccc1)C(=O)O)c1ccccc1	-4%	4%	·	4%
7	C=C(C)C1CC=C(C)CC1 (stereo unspecified)	·	-4%	·	·
8	O=C(CCCN1CCC(O)(c2ccc(Cl)cc2)CC1)c1ccc(F)cc1	-15%	7%	13%	-4%
9	Cc1ccccc1Br	-16%	-79%	·	·
10	C[C@]12C=CC(=O)C=C1CC[C@@H]1[C@H]3C[C@@H](O)[C@](O)(C(=O)CO)[C@@]3(C)C[C@H](O)[C@]12F	-7%[25.9 µM]	8%[21.6 µM]	-22%[25.5 µM]	·
11	CCc1c(C)[nH]c2c1C(=O)C(CN1CCOCC1)CC2 (stereo unspecified)	2%	4%	-3%	·
12	C=CCc1cc(Cl)ccc1OCCNCCOC	10%	-2%	4%	·
13	C[C@H]1C[C@@H]2[C@H]([C@@H](O)C[C@@]3(C)[C@H]2CC[C@]3(O)C(=O)CO)[C@@]2(C)C=CC(=O)C=C12	13%	6%	-4%	11%
14	Cc1ccnc2c1NC(=O)c1cccnc1N2C1CC1	2%&-1%&1%	4%&-14%&9%	-18%&10%	5%
15	C=CC(=O)OCCCC	1%	-19%	·	·
16	CN=C(N)NCCCC(N)C(=O)O (stereo unspecified)	-3%	-16%	1%	·
17	CO/N=C(\C(=O)N[C@@H]1C(=O)N2C(C(=O)[O-])=C(C[N+]3(C)CCCC3)CS[C@@H]12)c1csc(N)n1	-11%[25.9 µM]	-2%[21.6 µM]	-8%[25.5 µM]	·
18	c1c[nH]cn1	9%	-1%	·	·
19	CC[C@]1(O)CC2CN(CCc3c([nH]c4ccccc34)[C@@](C(=O)OC)(c3cc4c(cc3OC)N(C=O)[C@H]3[C@@](O)(C(=O)OC)[C@H](OC(C)=O)[C@]5(CC)C=CCN6CC[C@]43[C@@H]65)C2)C1 (stereo partly specified)	-18%	4%	7%	·
20	COc1ccc2c3c1OC1C[C@@H](O)C=C[C@@]31CCN(C)C2 (stereo partly specified)	-10%	0%	3%	·
21	OC[C@@H]1OC(O)[C@@H](O)[C@H](O)[C@H]1O (stereo partly specified)	-2%	·	·	·
22	CSc1ccc2c(c1)N(CC[C@H]1CCCCN1C)c1ccccc1S2	0%[25.9 µM]	3%[21.6 µM]	-5%[25.5 µM]	·
23	C/C=C\c1ccc(OC)cc1	-2%	-9%	·	·
24	CC(C)c1ccc2c(c1)CC[C@H]1[C@](C)(CN)CCC[C@]21C	-1%	-5%	5%	·
25	Cc1nc(=O)c(-c2ccccc2)c(C)n1-c1ccc(O)c(C(=O)O)c1	-17%	-3%	?	10%
26	COc1cc(CCc2ccc3c(c2)OCO3)oc(=O)c1	-6%	-5%	-2%	·
27	CC(C)C(C)(C)C(C)(C)C(C)(C)S	12%	3%	·	·
28	CC1(C)[C@H](C(=O)O)N2C(=O)C[C@H]2S1(=O)=O	i	7%	·	·
29	CC(C)c1ccc2c(c1)CCC1C(C)(CN)CCCC21C (stereo unspecified)	i	-5%	-3%	·
30	COc1ccc2c(c1OC)C(=O)O[C@@H]2[C@H]1c2c(cc3c(c2OC)OCO3)CCN1C	-5%&-10%&-8%	-6%&-2%&13%	-17%&-5%&-14%	-9%
31	CO[C@]1(NC(=O)C(C(=O)O)c2ccc(O)cc2)C(=O)N2C(C(=O)O)=C(CSc3nnnn3C)COC21 (stereo partly specified)	-3%	7%	5%	·
32	CC1(C)S[C@@H]2[C@H](NC(=O)Cc3ccccc3)C(=O)N2[C@H]1C(=O)O	17%	9%	-13%	0%
33	CC(C)(C)NCC(O)c1ccc(O)c(CO)c1 (stereo unspecified)	-8%&-15%	-12%&-5%&8%&7%&-3%	-6%&2%&7%&4%	·
34	O=C1Nc2ccc(Cl)cc2C(C#CC2CC2)(C(F)(F)F)O1 (stereo unspecified)	-9%	-4%	·	·
35	CCO[Si](CCCN)(OCC)OCC	12%	3%	·	·
36	CN1CCN(C2=Nc3cc(Cl)ccc3Nc3ccccc32)CC1	-11%	8%	4%	11%
37	NC(=O)N1c2ccccc2CC(=O)c2ccccc21	-13%&-13%	6%&10%&17%	?	-5%
38	COC(=O)C1C(O)CC[C@@H]2CN3CCc4c([nH]c5ccccc45)C3C[C@@H]12 (stereo partly specified)	-2%&-3%	3%&-4%	3%&-3%	·
39	C[C@H]1C[C@@H]2[C@@H]([C@@H](O)C[C@@]3(C)[C@H]2CC[C@]3(O)C(=O)CO)[C@@]2(C)C=CC(=O)C=C12	-6%[25.9 µM]	11%[21.6 µM]	-2%[25.5 µM]	·
40	CCOC(=O)C1=C[C@@]2(CC)CCCN3CCc4c(n1c1ccccc41)[C@H]32	-16%	15%	-1%	·
41	COc1ccc2c3c1OC1CC(O)C=C[C@@]31CCN(C)C2 (stereo partly specified)	7%	-6%	6%	·
42	CCCCC(CC)COCCCN (stereo unspecified)	2%	9%	·	·
43	C(/C=C/C=C/Nc1ccccc1)=Nc1ccccc1	-4%	5%	-7%	·
44	c1csc(-c2nnc(COc3ccc4c(c3)OCO4)o2)c1	i	7%	0%	-18%
45	Nc1ccc(N=Nc2ccccc2)c(N)n1	-5%	11%	?	-11%
46	CC(NCCC(c1ccccc1)c1ccccc1)c1ccccc1 (stereo unspecified)	6%	8%&-3%	4%&-1%	-7%
47	Nc1ncnc2c1ncn2C1CC(O)C(CO)O1 (stereo unspecified)	i	9%&6%	3%&4%	·
48	C/C=C1\C(=O)C[C@H]2[C@@H]3CCC4=CC(=O)CC[C@]4(C)[C@H]3CC[C@]12C	-5%	8%	·	·
49	COc1ccc(NS(=O)(=O)c2ccc(N)cc2)nn1	16%	9%	-2%	4%
50	CCSc1ccc2c(c1)N(CCCN1CCN(C)CC1)c1ccccc1S2	-5%[25.9 µM]	1%[21.6 µM]	-12%[25.5 µM]	-21%

# Only part of the results is shown, so the mix of outcomes need not match the whole.
